RanGTP-Impb inh: inhibitors of RanGTP-importin-beta interaction, primary screen, biochemical, FRET, CFP-Ran, YFP-importin-beta, homogeneous | 1.1% of 300,000 active | inhibition, % (test concentration not listed) | AID 2216, 2009 | Ran GTPase (GTP-bound) - importin-beta complex | cell-free CFP-Ran/YFP-importin-beta FRET ratio;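 active = most replicates above 15%; inconclusive = exactly half above 15%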;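 note: 0% = DMSO wells and 100% = Ran loaded with GDP instead of GTP; wells of about 40 µL received 100 nL stock; the first replicate is given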
LANA-H2B inh: blockers of LANA interaction with H2A/H2B – biochemical, FP readout, HTS, primary screen | cell-free LANA-H2A/H2B peptide, fluorescence polarization | inhibition, % (test concentration not listed) | Protein LANA1 (Human herpesvirus 8 type P (isolate GK18)), Q9QR71 | 0.6% of 320,000 active; in the data active = inhibition mostly above about 10%, no sharp cut-off; inactive = mostly below about 6.7%;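 note: stock transfer was 7.5 nL into about 10 µL; 0% = median of vehicle wells and 100% = median of positive control wells; one replicate is shown; the record names a cut of 25% in any replicate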
HNF4A DNA FP: change in binding of human HNF4A to DNA, primary screen, biochemical, fluorescence polarization, FITC-DNA. Hepatocyte nuclear factor 4-alpha (Homo sapiens), P41235. 1 h. activity change, % at 10 µM. 0.3% of 360,000 active; in the data active = activity change above about 30%, passing the limit was not always enough;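 note: controls were the assay level and a saturating level of protein; the project sought stronger binding though the title names inhibitors; some compounds called inactive have numbers as strong as hits; positive values seem to mean higher polarization but the record does not say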
Target sequence (P41235 whole entry, looked up): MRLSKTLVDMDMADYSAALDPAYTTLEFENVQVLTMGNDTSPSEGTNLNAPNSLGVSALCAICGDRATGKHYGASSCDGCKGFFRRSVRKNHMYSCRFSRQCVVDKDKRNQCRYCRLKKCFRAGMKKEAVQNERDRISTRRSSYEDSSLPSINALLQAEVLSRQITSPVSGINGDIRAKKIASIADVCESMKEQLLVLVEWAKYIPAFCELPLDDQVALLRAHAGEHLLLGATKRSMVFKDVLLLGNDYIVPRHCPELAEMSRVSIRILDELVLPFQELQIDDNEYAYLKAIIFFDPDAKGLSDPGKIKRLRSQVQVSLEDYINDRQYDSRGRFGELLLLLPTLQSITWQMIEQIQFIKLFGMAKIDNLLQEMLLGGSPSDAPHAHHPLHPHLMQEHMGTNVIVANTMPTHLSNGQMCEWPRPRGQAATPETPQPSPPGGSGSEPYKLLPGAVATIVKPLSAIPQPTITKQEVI
Vif TR-FRET: inhibitors of Vif binding to APOBEC3G peptide, primary screen, biochemical, TR-FRET, GST-Vif 1-94, biotin-A3G peptide, dose response retest (AID 1117319); Virion infectivity factor (Human immunodeficiency virus type 1 group M subtype B (isolate …; TR-FRET GST-Vif / biotin-A3G peptide binding; higher % means a stronger effect; test concentration not given here; strong numbers were not always called active; inhibition, %; hits with a dose series show IC50 in µM; 0.57% of 260,000 active;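 active = above the screen mean plus three standard deviations and confirmed in dose response; inconclusive = results disagree or hit not tested in dose response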;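 note: Vif residues 1-94 fused to GST binding biotinylated APOBEC3G peptide 110-148; 0% = full assay without inhibitor and 100% = GST in place of GST-Vif; retest series ran down from 100 µM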
Beta2AR agonist: beta2AR agonists driving receptor internalization, primary screen, cell-based, FAP fluorogen, flow cytometry; Am2.2-beta2AR cells; reference of the scale not given here; response, % (no concentration beside the values); 0.43% of 340,000 active; AID 504454, 2011;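 active = response above a set limit, near 3 SD of response in nonfluorescent compounds, cut at about 42% in these data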;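 note: stock transfer was 100 nL into about 11 µL; a reference agonist was the positive control; negative values mostly stem from fluorescent compounds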
Target sequence (P07550 whole entry, looked up): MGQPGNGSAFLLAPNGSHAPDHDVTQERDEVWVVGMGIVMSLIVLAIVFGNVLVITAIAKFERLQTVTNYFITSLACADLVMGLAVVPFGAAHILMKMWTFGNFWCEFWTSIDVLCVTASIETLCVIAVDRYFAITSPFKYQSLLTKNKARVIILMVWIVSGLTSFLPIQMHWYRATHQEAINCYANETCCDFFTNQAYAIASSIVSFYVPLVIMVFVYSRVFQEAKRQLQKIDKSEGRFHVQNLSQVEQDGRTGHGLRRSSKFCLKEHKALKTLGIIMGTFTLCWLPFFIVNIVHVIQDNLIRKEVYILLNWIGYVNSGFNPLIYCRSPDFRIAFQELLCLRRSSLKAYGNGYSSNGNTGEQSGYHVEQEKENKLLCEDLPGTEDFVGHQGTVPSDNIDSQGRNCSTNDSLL
Calb FLC: C. albicans growth inhibition with fluconazole, primary screen, CaCi-2 strain, Alamar Blue fluorescence; 0.57% of 300,000 active; C. albicans CaCi-2 (fluconazole-resistant clinical isolate) + fluconazole, 48 h; growth inhibition, % (no concentration beside the values);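 active = most replicates above 75%; inconclusive = exactly half above 75%; inactive = most below 75%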;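 note: all wells also contain fluconazole at 8 µg/ml as a sub-toxic cotreatment; 0% = median of DMSO wells and 100% = median of geldanamycin control wells; wells of about 8 µL received 7.5 nL stock; the first replicate is given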
ALR H2O2 inh: inhibitors of human ALR sulfhydryl oxidase, primary screen, biochemical, H2O2 detection, HRP-luminol luminescence, single point. FAD-linked sulfhydryl oxidase ALR (Homo sapiens), P55789. purified ALR, DTT oxidation. AID 485317, 2010. 3.8% of 290,000 active. inhibition, % (concentration not given with the values);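 active = mean and each replicate at 75% or more; inconclusive = only one of the two met; inactive = neither met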;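 note: stock transfer was 7.5 nL into about 7.5 µL; 0% = neutral wells and 100% = wells with inactivated enzyme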
Target sequence (P55789 whole entry, looked up): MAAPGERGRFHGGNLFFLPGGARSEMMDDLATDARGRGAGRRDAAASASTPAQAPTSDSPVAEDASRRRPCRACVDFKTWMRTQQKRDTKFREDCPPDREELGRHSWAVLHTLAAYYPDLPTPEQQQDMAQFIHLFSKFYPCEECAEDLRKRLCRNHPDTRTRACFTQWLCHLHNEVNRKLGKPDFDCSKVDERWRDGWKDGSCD
* marks the source's active call; other numbers are inactive results; i = inactive; ? = inconclusive; nt = not tested or not shown; & = joins results of further samples.

SMILES | RanGTP-Impb inh | LANA-H2B inh | HNF4A DNA FP | Vif TR-FRET | Beta2AR agonist | Calb FLC | ALR H2O2 inh
Cn1c(=O)c(=O)n(C)c2cc(S(=O)(=O)N3CCN(Cc4ccccc4)CC3)ccc21 | 3.0 | 2.5 | -4.0 | -6% | -8 | -6 | -6
CC1(C)Cc2cccc(OCC(=O)NC3CC3)c2O1 | ? | 1.2 | -0.5 | 6% | -5 | 7 | 0
CCCn1c(SCC(=O)Nc2cc(S(=O)(=O)N(C)C)ccc2OC)n[nH]c1=O | 0.1 | -8.2 | 5.4 | -1% | 16 | 1 | nt
O=C(c1ccc(-c2cc3ccccc3oc2=O)cc1)N1CCN(c2ccc(Cl)cc2[N+](=O)[O-])CC1 | 6.1 | 2.6 | -2.7 | -13% | 2 | 9 | -18
CCC(C)OC(=O)C(C)Oc1ccc(-c2ccccc2)cc1 (centres undefined) | -7.4 | 4.5 | 2.0 | 5% | 3 | 16 | -3
CCOC(=O)c1c(C)n(CC(COC(C)=O)OC(C)=O)c2ccc(OC(C)=O)cc12 (centres undefined) | 11 | -1.4 | -0.1 | 2% | 4 | -3 | -17
O=C(CSc1nc2ccccc2n1S(=O)(=O)c1cccc([N+](=O)[O-])c1)NCc1cccs1 | 0.8 | 3.0 | -0.3 | 31% | -6 | 17 | nt
O=C(NCc1ccccn1)c1cc(Cl)ccc1OCc1ccccc1 | 5.5 | -1.6 | -1.0 | -8% | 4 | 5 | 7
COc1ccc2c(c1OC)C(=O)N1N=C(c3ccc(-c4ccccc4)cc3)CC21 (centres undefined) | 0.1 | 0.0 | -1.0 | -9% | 7 | 16 | nt
CCOC(=O)C1CCCN(C(=O)c2cc(COc3ccc(C)nc3)on2)C1 (centres undefined) | 3.3 | 18* | 2.2 | nt | 0 | 1 | -1
O=C(CCS(=O)(=O)c1cccc2nonc12)N1CC(=O)N(CCc2ccccc2)C(=O)C1 | 0.3 | 0.5 | -5.6 | 3% | -2 | 0 | -27
O=C(CSc1nc2ccccc2c(=O)n1CC1CCCO1)NCc1ccccc1 (centres undefined) | 4.6 | 0.8 | 4.3 | -4% | -2 | 13 | nt
COc1ccc(CCNC(=O)c2ccc(CNc3c(N4CCOCC4)c(=O)c3=O)cc2)cc1OC | 4.6 | 4.3 | 0.4 | 1%&-3% | -4 | -7 | nt
O=C(Nc1ccc(NC(=O)C23CC4CC(CC(C4)C2)C3)cc1)c1cc(F)c(F)cc1Cl | -4.6 | 1.1 | -3.8 | nt | 8 | 26 | 1
CCCCOC(=O)C1=C(C)NC(=O)NC1c1ccc(N(C)C)cc1 (centres undefined) | 1.1 | -5.8 | -0.1 | -2% | -12 | 2 | 14
COc1ccc(OC)c(C2NC(=O)NC(C)=C2C(=O)OCc2ccccc2)c1 (centres undefined) | 2.1 | 1.1 | 2.0 | nt | 5 | 2 | -17
Cc1ccc(S(=O)(=O)NC2CC2)cc1[N+](=O)[O-] | 1.6 | -2.1 | -6.1 | nt | -7 | 11 | nt
O=C(Cn1ncc2c3ccccc3n(Cc3ccccc3)c2c1=O)NCc1ccco1 | -2.4 | 3.4 | -4.7 | 9% | 3 | -5 | 7
COc1ccc(CC(=O)N2CCC(Nc3nc4ccccc4n3Cc3ccc(F)cc3)CC2)cc1 | -3.8 | -6.0 | 1.4 | ? | 2 | 8 | -1
O=C(COc1coc(CN2CCc3ccccc3C2)cc1=O)Nc1cccc(F)c1 | 1.2 | 3.8 | -3.5 | nt | 0 | -2 | -2
Cc1ccc(CNC(=O)CN(Cc2ccccc2)S(C)(=O)=O)cc1 | -0.2 | 2.2 | -2.6 | -2% | 0 | -2 | -1
CC(C)(C)c1ccc(C(=O)/C=C2\NC(=O)CS2)cc1 | -1.2 | 1.0 | -1.2 | 1% | 21 | 0 | -1
Cc1cc(/C=N/NC(=O)CC2(C)OCCO2)c(C)n1-c1ccc(Cl)c(Cl)c1 | nt | 0.9 | 1.4 | 1% | 4 | 11 | 10
Cc1cc(C)n2c(SCC(C)C)nnc2n1 | -5.9 | 3.1 | -4.7 | 5% | -16 | -2 | 0
Cc1cc(NS(=O)(=O)c2ccc(NC(=O)c3ccc([N+](=O)[O-])c(Cl)c3)cc2)no1 | 6.8 | -4.4 | -1.2 | 2% | 3 | -3 | -1

2 neighbouring entries already listed, for reference:
SMILES | RanGTP-Impb inh | LANA-H2B inh | HNF4A DNA FP | Vif TR-FRET | Beta2AR agonist | Calb FLC | ALR H2O2 inh
Cc1cc(C)n2c(SCC(C)C)nnc2n1 | -5.9 | 3.1 | -4.7 | 5% | -16 | -2 | 0
Cc1cc(NS(=O)(=O)c2ccc(NC(=O)c3ccc([N+](=O)[O-])c(Cl)c3)cc2)no1 | 6.8 | -4.4 | -1.2 | 2% | 3 | -3 | -1

More compounds.
SMILES | RanGTP-Impb inh | LANA-H2B inh | HNF4A DNA FP | Vif TR-FRET | Beta2AR agonist | Calb FLC | ALR H2O2 inh
O=C(CCCC(=O)NC1CCCCC1)Nc1ccc([N+](=O)[O-])cc1 | 0.4 | 0.0 | 4.7 | nt | -4 | -6 | -7
CC(/C=C/c1ccccc1)=N\Nc1nc2c(c(=O)[nH]c(=O)n2C)n1CCO | -7.3 | -10 | nt | nt | nt | -1 | 17
CCCN(C(=O)CSc1nc2ccccc2n1CC)C1CCS(=O)(=O)C1 (centres undefined) | 2.1 | 2.1 | 0.0 | nt | -13 | 5 | -58
Cc1ccc(N2C(=S)SC3CS(=O)(=O)CC32)cc1 (centres undefined) | 1.8 | -3.1 | 1.7 | 28% | 9 | -1 | -1
Cc1onc(-c2c(F)cccc2Cl)c1C(=O)N1C=CC(C(F)(F)Cl)=NCC1 | ? | -3.1 | -1.0 | -2% | -1 | -4 | -11
c1c2c(cc3sc(N4CCCCC4)nc13)OCCO2 | 4.8 | nt | 0.6 | 12% | -2 | 11 | nt
COc1cc(Cn2nnc3ccccc32)cc(Br)c1O | 3.6 | 15 | -1.8 | nt | 1 | 39 | 39
CN(c1ccc(C(=O)Nc2ccc(CC#N)cc2)cc1)S(C)(=O)=O | -1.3 | -1.7 | -1.1 | 7% | 2 | 2 | -9
C/C=C/C(=O)N1CC2(CC(c3cccc(NC(=O)CCCCC)c3)=NO2)C[C@H]1C(N)=O (some centres undefined) | -0.8 | nt | nt | ? | nt | 1 | nt
O=C(NC(=S)NNC(=O)c1cnccn1)c1ccc(F)cc1 | 0.4 | 3.7 | 2.3 | 1% | 9 | ? | 6
O=C(CSc1n[nH]c(-c2cccnc2)n1)Nc1ccccc1 | 5.4 | -7.1 | 1.3 | -3% | -2 | ? | -8
COc1cccc(NC(=O)COC(=O)CNC(=O)C2CCCCC2)c1 | nt | i | 2.7 | -14% | 14 | nt | -3
CCn1c(SCC(=O)Nc2cc(C)ccc2C)nnc1-c1cnccn1 | 3.8 | 5.7 | 4.7 | -1% | 18 | 1 | 0
COc1ccc(CC(=O)n2[nH]c(=O)cc(C)c2=O)cc1OC | 0.1 | 2.1 | 4.2 | -5% | -1 | -5 | nt
COC(=O)N/N=C/c1ccccc1OCc1ccccc1 | 1.4 | 6.4 | 2.2 | -2% | -10 | 2 | nt
COc1ccc(CC(=O)NNC(=O)c2ccc(SCc3cc(F)ccc3F)c([N+](=O)[O-])c2)cc1 | 6.0 | -1.3 | -3.5 | 6% | -2 | 44 | -4
O=C(O)CN1C(=O)CC(Cc2ccc(Cl)cc2)C1=O (centres undefined) | 0.9 | 1.1 | 2.1 | 17% | 4 | -3 | -4
Cn1cc(CN2CCCC(CNS(=O)(=O)c3cccc4cccnc34)C2)cn1 (centres undefined) | 0.2 | -2.5 | 3.5 | 20% | 2 | 1 | -8
CC1(C)OC(=CC=Nc2ccc(Cl)cc2)OC1(C)C | -0.5 | 3.5 | -1.4 | 8% | -1 | 18 | -3
CCc1nn(CC(=O)NCc2ccccc2Cl)c(=O)c2cccn12 | 0.0 | -1.6 | 3.4 | nt | -5 | -10 | 0
OC(COc1ccccc1)CSc1ncn[nH]1 (centres undefined) | -0.3 | -7.1 | -1.7 | 1% | 2 | -3 | -1
O=C1c2cccc(OCC(=O)N3N=C(c4cccs4)CC3c3ccc(F)cc3)c2CCN1Cc1cccnc1 (centres undefined) | 0.8 | 4.1 | -2.4 | nt | -4 | -8 | 0
COc1cc(/C=N/NC(=O)Cc2csc(C)n2)ccc1OCC(C)C | -1.1 | -10 | -3.3 | nt | -2 | 28 | 39
CC(C)CNC(=O)CN(c1ccccc1)S(=O)(=O)c1ccccc1[N+](=O)[O-] | 4.5 | -4.9 | 0.2 | nt | 4 | -4 | nt
CCOc1ccccc1NC(=O)C(OC(=O)C1CC1)c1ccccc1 (centres undefined) | -0.2 | 0.9 | 2.6 | 26% | 0 | -7 | -7
Next section.
SMILES | RanGTP-Impb inh | LANA-H2B inh | HNF4A DNA FP | Vif TR-FRET | Beta2AR agonist | Calb FLC | ALR H2O2 inh
CC1CN(CCOCCOc2ccccc2-c2ccccc2)CC(C)O1 (centres undefined) | -3.3 | 2.6 | 1.8 | -3% | 8 | -4 | 2
Cc1nc(N)nc(Nc2ccc(C#N)cc2)c1Br | -1.4 | 1.3 | 5.0 | ? | -1 | -7 | -3
COc1ccc(N2CCN(C(=O)C3CCN(C(=O)c4ccccc4Cl)CC3)CC2)cc1 | -1.3 | 0.9 | 0.1 | nt | -1 | 1 | nt
CN(C)CCCN(C(=O)c1ccc(S(=O)(=O)N2CCCCCC2)cc1)c1nc2c(F)cc(F)cc2s1 | -2.4 | -5.1 | 5.3 | -5% | 21 | -14 | 6
OCC1OC(n2cnc3c(NC4CCCCC4)ncnc32)C(O)C1O (centres undefined) | 4.1 | -0.4 | 0.3 | -6% | -1 | -5 | -12
Cc1c(Cl)c(-c2n[nH]c(=S)n2Cc2ccco2)nn1C | 3.3 | 1.6 | 0.9 | -3% | 9 | 2 | 21
COc1cc(CN2CCC(n3nccc3NC(=O)c3ccccc3OC)CC2)ccc1F | ? | -8.1 | -2.3 | 4% | 9 | -4 | -17
CN1CCN(C/C(=C2/N=C(c3ccccc3)OC2=O)N(C)C)CC1 | 6.3 | 3.0 | -2.6 | 6% | -8 | ? | 98*
CCN1CCN(Cc2c(C(=O)N/N=C(\C)c3ccc(Cl)cc3)nnn2-c2nonc2N)CC1 | -1.9 | 3.7 | 0.4 | nt | -4 | -2 | nt
COCCNC(=O)c1ccc(N2CC3CC(C2)c2cccc(=O)n2C3)c(NC(=O)c2ccc(Br)o2)c1 (centres undefined) | 2.0 | 6.1 | -0.4 | 8% | 5 | -6 | 8

5 entries from above in another layout:
Results follow in this order: RanGTP-Impb inh | LANA-H2B inh | HNF4A DNA FP | Vif TR-FRET | Beta2AR agonist | Calb FLC | ALR H2O2 inh
- CN1CCN(C/C(=C2/N=C(c3ccccc3)OC2=O)N(C)C)CC1
 : 6.3 | 3.0 | -2.6 | 6% | -8 | ? | 98*
- COc1cc(CN2CCC(n3nccc3NC(=O)c3ccccc3OC)CC2)ccc1F
 : ? | -8.1 | -2.3 | 4% | 9 | -4 | -17
- OCC1OC(n2cnc3c(NC4CCCCC4)ncnc32)C(O)C1O (centres undefined)
 : 4.1 | -0.4 | 0.3 | -6% | -1 | -5 | -12
- Cc1c(Cl)c(-c2n[nH]c(=S)n2Cc2ccco2)nn1C
 : 3.3 | 1.6 | 0.9 | -3% | 9 | 2 | 21
- Cc1nc(N)nc(Nc2ccc(C#N)cc2)c1Br
 : -1.4 | 1.3 | 5.0 | ? | -1 | -7 | -3

Screening data from PubChem BioAssay.
